E coli growth = inhibitors of Escherichia coli growth. OD600, 23 h; hits give low values. OD600 absorbance (concentration not given with the values). actives 0.21% (n = 330,000). AID 1053175;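 active means OD600 absorbance below the run mean of sample wells minus 3.6 SD, in any replicate, cut at about 0.56 in these data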;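 further: stock transfer was 300 nL into about 60 µL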
ALR inh = inhibitors of human sulfhydryl oxidase ALR | purified ALR, DTT oxidation, H2O2 HRP-luminol luminescence | P55789 | inhibition, % (test concentration not listed) | actives 3.8% (n = 290,000);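 active means mean and each replicate at 75% or more; inconclusive means only one of the two met; inactive means neither met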;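 further: stock transfer was 7.5 nL into about 7.5 µL; 0% = neutral wells and 100% = wells with inactivated enzyme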
Target sequence (P55789 whole entry, looked up): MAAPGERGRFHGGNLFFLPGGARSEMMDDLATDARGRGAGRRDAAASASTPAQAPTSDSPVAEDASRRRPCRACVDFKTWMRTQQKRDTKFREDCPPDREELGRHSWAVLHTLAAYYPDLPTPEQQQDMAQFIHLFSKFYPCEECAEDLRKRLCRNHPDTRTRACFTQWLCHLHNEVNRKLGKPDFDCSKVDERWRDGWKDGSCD
AF4-AF9 inh = MLL-AF4/AF9 protein interaction inhibition; actives 0.47% (n = 350,000); AlphaScreen, biotin-AF4 peptide binding to FLAG-AF9; AID 651704; P42568; inhibition, % at 10 µM;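 active means every replicate reaching a set inhibition limit, whatever the replicate mean, cut at about 25% in these data; inconclusive means mean inhibition reaches that limit but some replicates miss it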;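 further: 0% = plate neutral control median and 100% = total signal loss; the record names both 10 and 1 µM as test concentration; the first replicate is given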
Target sequence (P42568 whole entry, looked up): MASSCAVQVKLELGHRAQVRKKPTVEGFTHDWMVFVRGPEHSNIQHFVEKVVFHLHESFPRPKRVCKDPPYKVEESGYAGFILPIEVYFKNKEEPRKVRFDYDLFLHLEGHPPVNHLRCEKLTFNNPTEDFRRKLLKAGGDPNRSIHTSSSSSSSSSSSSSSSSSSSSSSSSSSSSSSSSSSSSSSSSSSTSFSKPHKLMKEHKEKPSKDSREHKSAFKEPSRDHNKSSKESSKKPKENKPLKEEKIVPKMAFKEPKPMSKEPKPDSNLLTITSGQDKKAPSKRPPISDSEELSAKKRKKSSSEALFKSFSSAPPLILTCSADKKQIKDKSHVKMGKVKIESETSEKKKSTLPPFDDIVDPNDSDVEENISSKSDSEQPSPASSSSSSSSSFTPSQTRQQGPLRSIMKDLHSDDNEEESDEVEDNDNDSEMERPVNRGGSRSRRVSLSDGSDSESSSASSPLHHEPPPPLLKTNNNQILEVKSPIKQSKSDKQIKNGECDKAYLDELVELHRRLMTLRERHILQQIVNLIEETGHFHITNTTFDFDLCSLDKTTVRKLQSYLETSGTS
HNF4A DNA FP = change in binding of human HNF4 alpha to DNA. P41235. HNF4a-FITC DNA binding, fluorescence polarization, 1 h. activity change, % at 10 µM. actives 0.3% (n = 360,000). AID 1224865; in the data active means activity change above about 30%, passing the limit was not always enough;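 further: controls were the assay level and a saturating level of protein; the project sought stronger binding though the title names inhibitors; some compounds called inactive have numbers as strong as hits; positive values seem to mean higher polarization but the record does not say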
rRNA inh HTS = inhibitors of bacterial rRNA selective over humanized ribosomes | GFP signal change (wild-type ribosome), % (no concentration beside the values) | E. coli WT GFP vs humanized-ribosome RFP mutants, fluorescence, 24 h; hits give low values; DMSO median 0, no signal -100 | actives 1.6% (n = 350,000);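 active means significant combined selectivity score with lowered wild-type GFP, culture density cut under 30%, mutant RFP and density less affected; inactive means any of these conditions unmet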; further: one replicate is shown; some compounds called inactive have numbers as strong as hits
FGF22 binding = shifts melting point of recombinant human FGF22; Q9HCT0; recombinant FGF22 thermal shift, SYPRO orange fluorescence; percent of sucrose octasulfate shift, DMSO zero; calls only at 9.99 µM; actives 1.5% (n = 340,000); AID 651658;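 active means melting point raised past a set limit in the mean and every replicate; inconclusive means no clear call; three in four hits are not shown here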
Target sequence (Q9HCT0 whole entry, looked up): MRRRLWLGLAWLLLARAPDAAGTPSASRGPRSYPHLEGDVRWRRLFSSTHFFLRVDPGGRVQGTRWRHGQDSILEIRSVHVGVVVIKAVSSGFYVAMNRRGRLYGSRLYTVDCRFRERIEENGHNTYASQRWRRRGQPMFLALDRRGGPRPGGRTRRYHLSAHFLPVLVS
Vif A3G = inhibitors of Vif binding to APOBEC3G peptide, primary screen, biochemical, TR-FRET, GST-Vif 1-94, biotin-A3G peptide, dose response retest (AID 1117319). TR-FRET GST-Vif / biotin-A3G peptide binding; higher % means a stronger effect; test concentration not given here; strong numbers were not always called active. actives 0.57% (n = 260,000). inhibition, %; hits with a dose series show IC50 in µM;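 active means above the screen mean plus three standard deviations and confirmed in dose response; inconclusive means results disagree or hit not tested in dose response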;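 further: Vif residues 1-94 fused to GST binding biotinylated APOBEC3G peptide 110-148; 0% = full assay without inhibitor and 100% = GST in place of GST-Vif; retest series ran down from 100 µM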
rRNA inh HTS OD600 = further read-out of rRNA inh HTS, marked with its call; OD600 change, %; measured here: OD600 growth;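 optical density of the mix in the first replicate; 0 = DMSO median and -100 = no signal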
rRNA inh HTS RFP = recorded beside rRNA inh HTS, whose call it bears; RFP signal change, %; measured here: RFP humanized mutant strains;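 first replicate; 0 = DMSO median and -100 = no signal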
The depositor's hits bear a star; i = inactive; u = inconclusive; x = not tested or not shown. A portion of the library (hit frequency here may not be typical).

smiles | E coli growth | ALR inh | AF4-AF9 inh | HNF4A DNA FP | rRNA inh HTS | rRNA inh HTS OD600 | rRNA inh HTS RFP | FGF22 binding | Vif A3G
CC(C)c1ccc(N(CC(=O)NCc2cccnc2)S(=O)(=O)c2ccccc2)cc1 | 0.69 | -2 | 12 | 1.8 | -4 | -20 | 0.7 | i | x
CC(=O)N/C(=C\c1ccccc1)C(=O)NCc1ccc2c(c1)OCO2 | 0.72 | -10 | -3.4 | 4.5 | x | x | x | i | 5%
CN(C)c1ccc(-c2ccnc3c2CC(C)(C(=O)Nc2ccc(F)c(Cl)c2)O3)cc1 (centres undefined) | x | x | 9.0 | -0.9 | 7 | 4 | 0.0 | i | x
Cc1cc(C)c(NC(=O)CNC(=O)Cc2sc(C)nc2-c2ccc(F)cc2)c(C)c1 | 0.66 | -6 | -5.8 | -1.3 | 3 | 2 | 1.3 | i | -3%
CC1CCCC(NC(=O)CC2Nc3ccccc3NC2=O)C1C (centres undefined) | 0.76 | 3 | x | -3.4 | x | x | x | x | 30%
O=C(NCC1COc2ccccc2O1)c1cccc(S(=O)(=O)NCc2ccccc2)c1 (centres undefined) | 0.65 | -5 | -37 | -0.1 | -9 | -25 | -0.8 | i | 2%
COc1cccc(-c2ccc3c(c2)C2CC3CCN2C(C)=O)c1 (centres undefined) | x | x | -2.0 | 1.1 | -5 | -11 | 2.7 | i | x
COC(=O)[C@]12CCCCC=C1N(Cc1ccc(Cl)cc1Cl)C(=O)[C@H](CC(=O)N1CCN(C(=O)c3ccco3)CC1)C2 | x | x | 5.6 | 2.0 | -7 | -7 | 11 | i | x
Clc1ccc2oc(-c3ccccc3)nc2c1 | 0.68 | x | x | -3.0 | x | x | x | x | 14%
CC1(C(=O)NS(=O)(=O)c2cccc(OC(F)F)c2)CCN1C(=O)c1ccccc1CCc1ccccc1 (centres undefined) | x | x | 1.9 | 1.2 | -19 | -16 | -0.4 | i | x
Cc1cc(/C=c2/sc3nc4ccccc4n3c2=O)c(C)n1-c1ccccn1 | x | -2 | x | 6.8 | x | x | x | x | 25%
CN1c2ccc(-c3ccc(C#N)cc3)cc2[C@@H]2[C@@H](CCN2C(=O)Nc2cccc(F)c2)[C@@H]1CO | x | x | -4.1 | x | -10 | 13 | 1.4 | i | x
COc1cc2ccccc2cc1C(=O)N1CCCC1 | 0.71 | -21 | 0.6 | 0.8 | 0 | 8 | -1.4 | i | x
C[C@@H]1CN([C@@H](C)CO)C(=O)c2cc(NS(=O)(=O)c3ccc(F)cc3)ccc2O[C@@H](C)CCCCO[C@H]1CN(C)C(=O)CCC(F)(F)F | x | x | 4.1 | x | 1 | 5 | 1.0 | i | x
CC1(C)CC(=O)c2cnc3nc4ccccc4n3c2C1 | 0.67 | 6 | 1.1 | 3.6 | 15 | 12 | 4.0 | i | x
O=c1cc(O)n(-c2ccc(F)cc2)c(=S)[nH]1 | 0.67 | 2 | x | -0.4 | x | x | x | x | 51µM*
Cn1c(=O)c(C(=O)c2ccccc2)c(O)c2ccccc21 | 0.62 | -2 | -0.5 | 2.6 | -2 | -1 | -0.6 | i | x
Cc1cc(=O)[nH]c(SCc2cc(=O)n3nc(C)sc3n2)n1 | 0.76 | 4 | -1.6 | 1.1 | 10 | 12 | 4.0 | i | u
Cc1cc(C)c(C(=O)CN2C(=O)NC3(CCCCCC3)C2=O)cc1C | 0.66 | -5 | -0.6 | -1.5 | 2 | 4 | 2.2 | i | 0%
COc1ccc(CNC(=O)C[C@H]2C=C[C@H](NC(=O)CN(C)C)[C@@H](CO)O2)cc1 | x | x | -1.6 | x | 1 | -5 | -2.2 | i | x
CC1=C(C(=O)Nc2ccccc2C(=O)NCCCOC(C)C)SCCO1 | 0.66 | -3 | -0.8 | 3.2 | 8 | -3 | -1.0 | i | 4%
COc1cc(NC(=O)CCn2c(=O)[nH]c3ccsc3c2=O)cc(OC)c1 | 0.66 | -3 | x | -0.6 | x | x | x | x | 75%
COC(=O)c1ccc(C2C(Oc3ccccc3C)C(=O)N2CCc2ccc(OC)c(OC)c2)cc1 (centres undefined) | 0.73 | x | x | -0.8 | x | x | x | x | 22%
Cc1ccc(S(=O)(=O)c2nc(Nc3ccccc3N3CCOCC3)sc2Cl)cc1 | 0.68 | -10 | x | 0.3 | x | x | x | x | -2%
CS(=O)(=O)c1ccc(C(=O)NCC2(N3CCOCC3)CCCCC2)cc1 | 0.68 | -6 | -0.3 | -3.5 | 23 | 16 | 4.4 | i | -3%
COc1ccc(NC(=O)CSc2nnnn2C2CC3C=CC2C3)cc1 (centres undefined) | 0.68 | 1 | -2.9 | 0.8 | 1 | 2 | -1.7 | i | x
Cc1ccc2c(c1)N(CC(=O)NC1CCCCC1C)C(=O)CO2 (centres undefined) | 0.73 | -5 | x | -1.7 | x | x | x | x | -1%
COc1ccccc1N1CCN(C(=O)c2cc(-c3ccc(F)cc3)on2)CC1 | 0.66 | 6 | 0.7 | -0.1 | 2 | 1 | -4.3 | i | -2%
CC(C)(C)[S@@](=O)N1Cc2cc(C(=O)NCCN3CCCCC3)nc(-c3cccc(-c4cccc(C#N)c4)c3)c2[C@H]1CCO | x | x | 4.5 | x | 3 | 7 | 5.3 | i | x
CCC(=O)N1C[C@H]2[C@@H](c3ccccc31)[C@H](CO)N2C(=O)CC | x | x | -0.4 | x | -1 | 4 | -0.4 | i | x
O=C(CN1c2cccc3cccc(c23)S1(=O)=O)Nc1ccc(F)c(F)c1F | 0.71 | -10 | 1.0 | -2.8 | 6 | -17 | -3.5 | i | 1%
Cc1ccc(S(=O)(=O)N(C)C[C@H]2Oc3c(NC(=O)C4CC4)cccc3C(=O)N([C@H](C)CO)C[C@H]2C)cc1 | x | x | 0.2 | x | -6 | -1 | -0.9 | i | x

Printed as active in Vif A3G, among the entries above:
smiles | E coli growth | ALR inh | AF4-AF9 inh | HNF4A DNA FP | rRNA inh HTS | rRNA inh HTS OD600 | rRNA inh HTS RFP | FGF22 binding | Vif A3G
O=c1cc(O)n(-c2ccc(F)cc2)c(=S)[nH]1 | 0.67 | 2 | x | -0.4 | x | x | x | x | 51µM*

(cont.)
smiles | E coli growth | ALR inh | AF4-AF9 inh | HNF4A DNA FP | rRNA inh HTS | rRNA inh HTS OD600 | rRNA inh HTS RFP | FGF22 binding | Vif A3G
CCCCC1=CC2=C(c3ccco3)C(=O)C(C)(OC(=O)c3ccc(OC)cc3)C(=O)C2=CN1Cc1ccccc1 (centres undefined) | 0.72 | x | -4.8 | -3.5 | 7 | -7 | 8.8 | i | u
O=C(Nc1cccc(S(=O)(=O)NC2=NCCC2)c1)c1ccc(F)cc1 | 0.68 | -4 | -5.8 | 4.4 | -1 | 3 | -0.2 | i | x
CC1=CC2=NC(=O)C(c3ccccc3)C(=O)N2C=C1 (centres undefined) | 0.68 | x | -2.3 | 0.9 | 5 | 12 | -3.0 | i | -5%
O=C(C1CCN(C2CCN(Cc3ccc4c(c3)CCO4)CC2)CC1)N1CCOCC1 | 0.69 | -13 | 2.3 | 0.0 | 11 | 14 | 1.2 | x | 32%
CO[C@@H]1CN(C)C(=O)c2ccc(NC(=O)NC3CCCCC3)cc2OC[C@@H](C)N(CC2CCOCC2)C[C@H]1C | x | x | 4.8 | x | 2 | -17 | 11 | i | x
C=C(C)c1cccc(C(C)(C)NC(=O)NC(c2ccccc2)c2ccc(OC)cc2)c1 (centres undefined) | 0.74 | 1 | -2.8 | -1.1 | 12 | 6 | 5.9 | i | 10%
CN(C)C(=O)N1CCc2ccc([N+](=O)[O-])cc21 | x | x | 0.0 | 3.5 | 4 | 12 | -0.4 | i | -4%
O=C(C[C@@H]1CC[C@H](NC(=O)c2cccnc2)[C@@H](CO)O1)NCc1ccc(Cl)c(Cl)c1 | x | x | -2.3 | x | 0 | 6 | 0.2 | i | x

Next section; it opens with the 2 that closed the last part.
smiles | E coli growth | ALR inh | AF4-AF9 inh | HNF4A DNA FP | rRNA inh HTS | rRNA inh HTS OD600 | rRNA inh HTS RFP | FGF22 binding | Vif A3G
CN(C)C(=O)N1CCc2ccc([N+](=O)[O-])cc21 | x | x | 0.0 | 3.5 | 4 | 12 | -0.4 | i | -4%
O=C(C[C@@H]1CC[C@H](NC(=O)c2cccnc2)[C@@H](CO)O1)NCc1ccc(Cl)c(Cl)c1 | x | x | -2.3 | x | 0 | 6 | 0.2 | i | x
Cc1cccc(NC(=O)CSc2nnc(CNC(=O)c3ccc(S(=O)(=O)N(C)C)cc3)n2-c2cccc(C)c2)c1 | 0.69 | -1 | x | -1.1 | x | x | x | x | 5%
CCc1ccc2[nH]c(=O)c(CN(Cc3ccccc3OC)Cc3nnnn3Cc3ccco3)cc2c1 | 0.76 | 3 | x | 7.9 | x | x | x | x | 21%
O=C(Nc1ccccc1F)N[C@@H]1CC[C@H](CCNC(=O)C2CCCCC2)O[C@@H]1CO | x | x | -1.0 | x | 3 | 0 | -1.9 | i | x
CC1CCN(S(=O)(=O)c2cc(C(=O)N3CCN(c4ncccn4)CC3)ccc2Br)CC1 | 0.66 | -1 | x | -0.4 | x | x | x | x | x
CCCCCCCCOc1ccc(C(=O)O)cc1 | x | 52 | x | 2.9 | -9 | -18 | -0.4 | i | x
Cc1ccccc1S(=O)(=O)Cc1ccc(C(=O)NC2CCC(C)CC2)o1 (centres undefined) | 0.67 | -3 | 0.8 | 1.6 | -19 | -23 | 0.9 | i | x
CSCCC(NC(=O)COc1ccccc1)C(=O)N1CCN(c2ccccc2)CC1 (centres undefined) | 0.68 | 21 | 4.1 | 0.4 | x | x | x | i | u
CCCCC(=O)Nc1ccc(NC(=O)c2ccccc2OC)cn1 | 0.7 | -3 | x | 1.2 | x | x | x | x | 1%

A stretch of the results above, as a working copy:
smiles | E coli growth | ALR inh | AF4-AF9 inh | HNF4A DNA FP | rRNA inh HTS | rRNA inh HTS OD600 | rRNA inh HTS RFP | FGF22 binding | Vif A3G
Cc1cccc(NC(=O)CSc2nnc(CNC(=O)c3ccc(S(=O)(=O)N(C)C)cc3)n2-c2cccc(C)c2)c1 | 0.69 | -1 | x | -1.1 | x | x | x | x | 5%
CCc1ccc2[nH]c(=O)c(CN(Cc3ccccc3OC)Cc3nnnn3Cc3ccco3)cc2c1 | 0.76 | 3 | x | 7.9 | x | x | x | x | 21%

Remaining list, next part:
smiles | E coli growth | ALR inh | AF4-AF9 inh | HNF4A DNA FP | rRNA inh HTS | rRNA inh HTS OD600 | rRNA inh HTS RFP | FGF22 binding | Vif A3G
COc1ccc(NC(=O)C(c2ccccc2F)n2c(=O)c(-c3ccco3)nc3ccccc32)cc1 (centres undefined) | x | x | 4.4 | 16 | -9 | -2 | 5.4 | i | x
CC(C)NC(=O)N1[C@@H](C#N)[C@H](c2ccc(C#CC3CC3)cc2)[C@@H]1CO | x | x | -0.5 | x | 20 | -2 | -0.8 | i | x
COc1ccccc1/C=N/NC(=O)c1cccc(NC(=O)c2ccccc2Cl)c1 | x | -24 | 3.0 | 3.2 | -13 | 1 | -2.8 | i | -10%
Fc1ccccc1CNCc1ccc2c(c1)OCO2 | 0.69 | 20 | -0.3 | 0.3 | -1 | 6 | -1.1 | i | -1%
CCCn1c2ccc(C)cc2c2n[nH]c(=S)nc21 | 0.68 | 4 | -1.3 | -2.4 | 10 | 13 | -3.2 | i | 3%
